# FGF22 binding – binders of human FGF22 protein, primary screen, FGF22 synaptogenesis inhibitor project, biophysical, thermal shift, single point. Fibroblast growth factor 22 (Homo sapiens), Q9HCT0. recombinant FGF22 thermal shift, SYPRO orange fluorescence; percent of sucrose octasulfate shift, DMSO zero. calls only at 9.99 µM. actives 1.5% (n = 340,000);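 active means melting point raised past a set limit in the mean and every replicate; inconclusive means no clear call; three in four hits are not shown here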
# Target sequence (Q9HCT0 whole entry, looked up): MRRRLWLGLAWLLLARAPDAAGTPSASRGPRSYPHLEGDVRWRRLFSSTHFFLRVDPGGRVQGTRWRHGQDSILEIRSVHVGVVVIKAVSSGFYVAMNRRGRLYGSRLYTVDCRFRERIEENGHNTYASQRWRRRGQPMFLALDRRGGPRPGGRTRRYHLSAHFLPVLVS
# Vif TR-FRET – inhibitors of Vif binding to APOBEC3G peptide, primary screen, biochemical, TR-FRET, GST-Vif 1-94, biotin-A3G peptide, dose response retest (AID 1117319). TR-FRET GST-Vif / biotin-A3G peptide binding; higher % means a stronger effect; test concentration not given here; strong numbers were not always called active. Virion infectivity factor (Human immunodeficiency virus type 1 group M subtype B (isolate …. one-dose inhibition, %; IC50 in µM for titrated hits. actives 0.57% (n = 260,000);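 active means above the screen mean plus three standard deviations and confirmed in dose response; inconclusive means results disagree or hit not tested in dose response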;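 further: Vif residues 1-94 fused to GST binding biotinylated APOBEC3G peptide 110-148; 0% = full assay without inhibitor and 100% = GST in place of GST-Vif; retest series ran down from 100 µM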
# RanGTP-Imp inh – inhibitors of RanGTP-importin-beta interaction, primary screen, biochemical, FRET, CFP-Ran, YFP-importin-beta, homogeneous | Ran GTPase (GTP-bound) - importin-beta complex | inhibition, % (no concentration beside the values) | cell-free CFP-Ran/YFP-importin-beta FRET ratio | actives 1.1% (n = 300,000);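 active means most replicates above 15%; inconclusive means exactly half above 15%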;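 further: 0% = DMSO wells and 100% = Ran loaded with GDP instead of GTP; wells of about 40 µL received 100 nL stock; the first replicate is given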
# E coli growth – E. coli growth inhibition, primary screen, OD600; Escherichia coli growth, 23 h; stronger effect = lower value; OD600 absorbance (no concentration beside the values); actives 0.21% (n = 330,000); AID 1053175, 2014;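 active means OD600 absorbance below the run mean of sample wells minus 3.6 SD, in any replicate, cut at about 0.56 in these data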;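 further: stock transfer was 300 nL into about 60 µL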
# AF4-AF9 inh – inhibitors of AF4 peptide binding to AF9, primary screen, biochemical, AlphaScreen, biotin-AF4 peptide, FLAG-AF9, single point. AID 651704, 2012. Protein AF-9 (Homo sapiens), P42568. inhibition, % at 10 µM. actives 0.47% (n = 350,000);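 active means every replicate reaching a set inhibition limit, whatever the replicate mean, cut at about 25% in these data; inconclusive means mean inhibition reaches that limit but some replicates miss it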;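 further: 0% = plate neutral control median and 100% = total signal loss; the record names both 10 and 1 µM as test concentration; the first replicate is given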
# Target sequence (P42568 whole entry, looked up): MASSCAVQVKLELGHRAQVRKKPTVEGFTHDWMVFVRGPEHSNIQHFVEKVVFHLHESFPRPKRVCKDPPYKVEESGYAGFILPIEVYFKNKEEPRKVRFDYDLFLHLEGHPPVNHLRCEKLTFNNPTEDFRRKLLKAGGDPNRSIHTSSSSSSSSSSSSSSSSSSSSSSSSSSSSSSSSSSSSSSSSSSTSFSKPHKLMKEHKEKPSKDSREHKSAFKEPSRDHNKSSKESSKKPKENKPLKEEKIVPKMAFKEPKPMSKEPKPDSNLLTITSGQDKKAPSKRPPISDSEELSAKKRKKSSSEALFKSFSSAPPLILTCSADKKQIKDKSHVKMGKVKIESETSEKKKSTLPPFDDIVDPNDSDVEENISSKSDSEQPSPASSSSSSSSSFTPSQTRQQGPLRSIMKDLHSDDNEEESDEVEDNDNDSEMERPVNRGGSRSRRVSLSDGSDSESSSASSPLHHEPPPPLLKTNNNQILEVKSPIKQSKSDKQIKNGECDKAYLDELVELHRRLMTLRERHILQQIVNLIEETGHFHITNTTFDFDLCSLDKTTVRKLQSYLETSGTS
# UCH37 DUB inh – inhibitors of human UCH37 deubiquitinase, primary screen, biochemical, Ub-AMC cleavage, fluorescence; Ubiquitin carboxyl-terminal hydrolase isozyme L5 (Homo sapiens), Q9Y5K5; purified proteasome/UCH37; inhibition, % (no concentration beside the values); actives 0.33% (n = 330,000); AID 588478, 2011;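 active means mean of two replicates above 20%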;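 further: 0% = compound-free wells with enzyme and 100% = wells lacking proteasome; stock transfer was 100 nL into about 20 µL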
# Target sequence (Q9Y5K5 whole entry, looked up): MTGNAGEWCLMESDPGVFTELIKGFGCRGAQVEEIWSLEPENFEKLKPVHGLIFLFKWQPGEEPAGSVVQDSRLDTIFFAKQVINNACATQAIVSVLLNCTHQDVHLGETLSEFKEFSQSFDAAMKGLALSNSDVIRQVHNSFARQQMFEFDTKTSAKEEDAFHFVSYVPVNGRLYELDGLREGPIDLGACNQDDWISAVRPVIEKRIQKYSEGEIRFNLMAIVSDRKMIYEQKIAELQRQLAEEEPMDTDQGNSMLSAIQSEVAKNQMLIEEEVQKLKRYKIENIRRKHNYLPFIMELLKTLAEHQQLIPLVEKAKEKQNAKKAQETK
#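 assay system = human UCH37 enzyme supplied as purified proteasome complex | amount = proteasome at 0.15 nM in the dispensed enzyme solution | schedule = 30 min compound-proteasome preincubation then 25 min substrate reaction, room temperature | measured by = fluorescence, ex 355 nm, em 460 nm | benchmarks = no-proteasome wells (full inhibition) and compound-free wells (no inhibition)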
# HNF4A DNA FP – change in binding of human HNF4A to DNA, primary screen, biochemical, fluorescence polarization, FITC-DNA | activity change, % at 10 µM | actives 0.3% (n = 360,000) | 1 h | Hepatocyte nuclear factor 4-alpha (Homo sapiens), P41235; in the data active means activity change above about 30%, passing the limit was not always enough;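 further: controls were the assay level and a saturating level of protein; the project sought stronger binding though the title names inhibitors; some compounds called inactive have numbers as strong as hits; positive values seem to mean higher polarization but the record does not say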
# Numbers without * were called inactive; i = inactive; u = inconclusive; x = no result given; & = joins results of further samples.
No.	Compound	FGF22 binding	Vif TR-FRET	RanGTP-Imp inh	E coli growth	AF4-AF9 inh	UCH37 DUB inh	HNF4A DNA FP
1	COc1cc(/C=N/NC(N)=S)ccc1OCC(=O)Nc1ccc(C)c(C)c1	x	u	9.5	x	x	x	1.9
2	CCOc1ccc(CCNC(=O)COC(=O)C2CC2)cc1OCC	x	3%	-1.7	0.69	0.9	0.5	0.0
3	C=CCn1c(SCC(=O)Nc2sc(C)c(C)c2C(=O)OCC)nnc1-c1sc(N)nc1C	x	0%&-5%	4.5	0.74	x	1.9	5.0
4	CN(C(=O)C1CCCCN1S(=O)(=O)c1ccccc1)c1ccccc1 (centres undefined)	i	-7%	x	0.69	-1.6	0.5	5.4
5	CC(C)CCN1C(=O)c2ccc(C(=O)Nc3cc(C(=O)O)cc(C(=O)O)c3)cc2C1=O	i	x	13	0.68	-9.4	2.4	4.1
6	O=C(CSc1nc(O)c(-c2ccccc2)c(=O)[nH]1)N1CCOCC1	i	3%	4.1	0.69	-0.7	3.7	2.1
7	Cc1ccc(NC(=O)COC(=O)c2ccc3c(c2)OCCO3)cc1S(=O)(=O)N1CCOCC1	i	-7%	-1.9	0.69	-20	3.1	1.4
8	CC(C)C(=O)NC(C)C(c1cccs1)N1CCN(c2ccccc2)CC1 (centres undefined)	x	-1%	-0.1	0.64	-20	3.5	-0.6
9	CN(C)c1ccc(C(CNS(=O)(=O)c2ccc([N+](=O)[O-])cc2)N2CCOCC2)cc1 (centres undefined)	i	-2%	-3.0	0.7	0.9	0.9	-0.2
10	COc1cc(/C=N/S(=O)(=O)CCc2ccccc2)ccc1O	x	5%	3.6	x	x	x	-1.1
11	O=C(c1ccc2c3n(nc2c1)-c1ccccc1CO3)N1CCCCC1	i	11%	4.4	0.64	-11	-0.6	0.1
12	Cc1nnc(SCc2cccc3ccccc23)n(N)c1=O	i	x	2.9	0.67	6.0	2.7	-1.2
13	COc1ccccc1CN1CC(C(=O)NCCN(C)CCc2ccccc2)CCC1=O (centres undefined)	i	3%	u	0.68	3.8	1.7	-1.3
14	CCOc1ccccc1-c1nnc(SCC(=O)NC2(C#N)CCCC2)o1	i	-6%	x	0.7	0.7	5.9	0.0
15	O=C(NC1CCCCC1)C1CC(=O)N(CCc2ccc(F)cc2)C1 (centres undefined)	i	10%	0.0	0.68	-0.6	2.6	-1.8
16	CSc1cccc(NC(=O)CN2C(=O)c3ccccc3S2(=O)=O)c1	i	-4%	4.6	0.69	4.6	6.5	3.5
17	COc1ccc(N2CCN(C(=O)c3cc(S(=O)(=O)N4CCCCCC4)ccc3OC)CC2)cc1	i	-3%	x	0.69	7.7	3.4	2.4
18	O=C(NCCCN1CCOCC1)c1cc2c(=O)[nH]c3ccccc3c2s1	x	26%	-1.1	0.66	x	-164	3.9
19	CCN(CC(=O)Nc1ccc2c(c1)OCCO2)Cc1nc2cc(Cl)ccc2c(=O)[nH]1	i	3%	x	0.64	4.6	0.0	0.9
20	Cc1ccc(C(=O)NCC(=O)Nc2ccc(F)c(F)c2F)cc1	i	0%	2.4	0.68	-2.8	-1.5	-0.7
21	O=C(Nc1ccc(Br)cc1)c1ccc(F)c(S(=O)(=O)NCc2cccs2)c1	x	19%	-6.1	0.66	x	2.4	2.1
22	COc1ccc2c(CC(=O)Nc3ccc4nc(N5CCOCC5)sc4c3)coc2c1	i	-9%	x	x	-17	x	-0.7
23	COc1ccc(C2CC(c3ccccc3)=NN2S(=O)(=O)c2ccccc2)cc1 (centres undefined)	i	x	-3.0	0.7	-24	4.4	77*
24	CC1(C)CC(=O)C=C(NCC(O)c2ccccc2)C1 (centres undefined)	i	x	1.3	0.68	0.5	4.5	4.8
25	CC(C)CC(OC(=O)c1ccco1)C(=O)NC1CCCC1 (centres undefined)	i	-3%	3.8	0.67	-1.1	2.7	-0.1
26	CCOc1ccc(-c2nc(-c3ccc(OC)cc3)no2)cc1OCC	x	-2%	-2.6	0.71	x	-1.3	3.6
27	CCN(CC)CCn1c2c(c(SCC(=O)Nc3cc(C)ccc3C)nc1=O)CCC2	i	-13%	0.8	0.71	-0.2	-0.8	-1.9
28	CCCNC(=O)c1ccc(N2CCC3(CC2)CC(c2cccc(Br)c2)=NO3)c(NC(=O)c2cccc(OC)c2)c1	i	x	-0.2	0.71	x	3.8	1.5
29	Cc1ccc(-n2nnc(-c3ccnc4ccccc34)n2)cc1	i	-2%	3.6	0.67	x	2.6	-4.2
30	CCOC(=O)C1(CCOC)CCN(Cc2ccc(C3CCCCO3)s2)CC1 (centres undefined)	i	x	0.0	0.65	0.4	3.6	1.5

# Already shown: entries from further up.
No.	Compound	FGF22 binding	Vif TR-FRET	RanGTP-Imp inh	E coli growth	AF4-AF9 inh	UCH37 DUB inh	HNF4A DNA FP
21	O=C(Nc1ccc(Br)cc1)c1ccc(F)c(S(=O)(=O)NCc2cccs2)c1	x	19%	-6.1	0.66	x	2.4	2.1
22	COc1ccc2c(CC(=O)Nc3ccc4nc(N5CCOCC5)sc4c3)coc2c1	i	-9%	x	x	-17	x	-0.7
23	COc1ccc(C2CC(c3ccccc3)=NN2S(=O)(=O)c2ccccc2)cc1 (centres undefined)	i	x	-3.0	0.7	-24	4.4	77*

# (continued)
No.	Compound	FGF22 binding	Vif TR-FRET	RanGTP-Imp inh	E coli growth	AF4-AF9 inh	UCH37 DUB inh	HNF4A DNA FP
31	O=C(NCc1n[nH]c(=S)n1-c1ccc(Br)cc1)c1ccc(S(=O)(=O)N2CCCCC2)cc1	i	0%	8.7	0.66	-13	1.7	4.9
32	O=C(Cn1c(NCCO)nc2ccccc21)NCC(F)(F)F	i	70%	1.8	0.66	5.9	-0.1	2.2
33	COC(=O)c1ccc(NC(=O)CSc2ccc(-c3ccccn3)nn2)cc1	i	x	x	0.72	-1.8	-0.1	1.2
34	CN(C(=O)c1ccc2c(c1)SC1=NS(=O)(=O)CCN12)C(c1ccccc1)c1ccccc1	x	2%	6.5	0.72	x	4.4	-1.1
35	C=CCOc1ccc(C2C(C#N)=C(N)N(Nc3ccccc3)C3=C2C(=O)CCC3)cc1OC (centres undefined)	x	18%	7.3	0.7	x	-11	-1.9
36	CCCNC(=O)C(Cc1ccccc1)NS(=O)(=O)c1ccc2c(c1)CCC(=O)N2 (centres undefined)	i	-1%	-4.3	0.73	-3.2	-1.4	-0.6
37	Cc1nn(-c2ccccc2)c(N)c1N=Nc1cccc(S(=O)(=O)N2CCOCC2)c1	i	u	-1.0	0.7	x	11	2.1
38	CC(=NCCN1CCNCC1)C1=C(O)CC(C)(C)CC1=O	x	u	3.4	0.65	x	3.1	6.1
39	O=C(OCC(=O)N1CCN(C(=O)c2ccco2)CC1)c1cc(-c2ccc(Cl)c(Cl)c2Cl)nc2ccccc12	x	-7%	4.3	0.7	x	-42	3.7
40	COc1cccc(N2CCN(C3CC(=O)N(c4ccc(Cl)cc4)C3=O)CC2)c1 (centres undefined)	x	20%	1.1	0.72	x	19	-3.5
41	CCC1(C)Cc2ccccc2-c2nc(NN)[nH]c(=O)c21 (centres undefined)	i	x	2.6	0.7	-0.5	0.0	-2.8
42	Cc1cccc(N2CCN(S(=O)(=O)c3ccc4c(c3)NC(=O)C(C)S4)CC2)c1C (centres undefined)	i	12%	3.0	0.66	-1.5	2.9	9.7
43	CCOC(=O)c1ccc(N2C(=O)C3CC=CCC3C2=O)cc1 (centres undefined)	x	-4%	1.7	0.61	x	0.6	-0.2
44	CC(=O)c1ccc(OCCCC(=O)N(CCC2=CCCCC2)c2c(N)n(Cc3ccccc3)c(=O)[nH]c2=O)cc1	i	5%	-1.2	0.68	2.9	5.9	1.4
45	CCCCCNC(=O)N[C@H](C(=O)O)C(C)C	x	15%	-3.4	0.69	x	2.9	-1.2
46	CCOc1ccc(OCC)c(-c2c(=O)n(OCc3ccc(C(C)(C)C)cc3)c3ccccc3[n+]2[O-])c1	i	-8%	-0.7	0.72	15	3.0	4.7
47	COc1ccc(C(C)C)cc1S(=O)(=O)Nc1ccccn1	i	8%	4.4	0.67	4.5	-2.4	-4.0
48	Cc1cccc(C)c1NC(=O)CN(C)C(=O)c1ccccc1SCC(=O)N1CCCC1	i	-7%	x	0.69	-0.1	1.7	-2.4
49	Cn1c(=O)c2c(nc(CN3CCN(c4ccc(F)cc4)CC3)n2Cc2ccccc2F)n(C)c1=O	x	16%	0.8	0.7	x	1.1	3.1
50	CCS(=O)(=O)Nc1cc(OC)c(OC)cc1Cc1nccc2cc(OC)c(OC)cc12	i	20%	8.4	0.7	-9.5	5.0	6.4
51	C=CCNc1cnn(-c2ccc(C)cc2)c(=O)c1Sc1ccc(C)cc1	i	-21%	-1.0	0.67	0.2	5.1	2.6
52	Cc1ccc(NC(=O)CSc2nc3ccccc3nc2N2CCCC2)cc1	i	x	2.2	0.79	7.3	-1.4	-0.7
53	Cc1cc(C)c(C)c(S(=O)(=O)NCCCn2ccnc2)c1C	i	x	-2.4	0.69	0.3	3.8	-0.1
54	C/C(=N/NC(=O)CN1CCN(S(=O)(=O)c2ccc(C)cc2)CC1)c1cccc(O)c1	i	u	-1.7	x	1.6	x	4.4
55	O=C(NCc1ccccc1F)C1CCCN1S(=O)(=O)c1ccc(Cl)cc1 (centres undefined)	i	x	-3.8	0.65	-3.4	2.8	-2.5
56	O=C(c1ccco1)N1CCN(C(c2ccccc2Cl)c2nnnn2Cc2cccs2)CC1 (centres undefined)	x	-3%	4.1	0.76	x	2.8	-2.5
57	CCCn1c2ccccc2c2cnn(CC(=O)NCCCOC)c(=O)c21	i	4%	-1.3	0.67	-4.9	-19	0.1
58	COc1ccc(NC(=O)CSc2nnc(NC(=O)C3CCC3)s2)cc1	i	x	3.3	0.66	1.3	3.9	-2.3
59	CCn1c(CN2CCN(Cc3ccc(C)cc3)C(CCO)C2)nc2ccccc21 (centres undefined)	i	-5%	2.3	0.71	2.6	2.0	-0.1
60	O=C(NC1CCCCCCC1)C1CCN(S(=O)(=O)N2CCC3(CC2)OCCO3)CC1	i	-4%	0.4	0.67	-2.7	-0.8	0.2

# More records
No.	Compound	FGF22 binding	Vif TR-FRET	RanGTP-Imp inh	E coli growth	AF4-AF9 inh	UCH37 DUB inh	HNF4A DNA FP
61	COc1cnc(N(C)C)nc1Sc1cccc(Cl)c1	x	u	0.7	0.72	x	-107	-20
62	CC1=NOC(=O)/C1=C\c1ccc(-c2cccc(Cl)c2)o1	x	u	3.3	0.76	x	0.3	0.8
63	CCOc1ccc(C2CC(c3c(O)c4ccccc4oc3=O)=NN2c2ccccc2)cc1OC (centres undefined)	i	8%	-12	0.67	-22	-24	64
64	CCCCCOc1ccc(NS(C)(=O)=O)cc1	x	11%	4.8	0.7	x	-1.1	1.3
65	COc1ccc(C(=O)N(C)[C@H]2C[C@H]3c4[nH]c5ccccc5c4CCN3C[C@H]2[C@H](C)O)cc1	i	x	x	x	3.1	x	-1.5
66	COc1ccc(NC(=O)c2cccc3c(-c4cnn(C)c4)coc23)cc1	i	x	x	x	1.0	x	-2.9
67	CCN(CC)S(=O)(=O)c1ccc(N2CCc3ccccc3C2)nc1	i	x	u	x	-1.4	x	-3.0
68	Cc1cc(C)c2cc(N)c(Cl)nc2n1	i	x	x	x	-10	x	-1.6
69	CC(C)C(C)NC(=O)COc1ccc(Sc2ccc(OCC(=O)NC(C)C(C)C)cc2)cc1 (centres undefined)	i	x	0.0	0.67	3.8	0.8	1.2

# Screening results from PubChem.

# Some of the compounds tested (hit frequency here may not be typical).
